# NOMO-1 viab – NOMO-1 AML cell viability reduction, primary screen, STK33 inhibitor project, CellTiter-Glo luminescence; NOMO-1 AML viability, 72 h; inhibition, % (test concentration not listed); 37,000 compounds, 7.5% hits;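 active = most replicates above 80%; inconclusive = exactly half above 80%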;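 also: wells of about 30 µL received 25 nL stock; 0% = median of vehicle wells and 100% = reference inhibitor level; the first replicate is given; inactives centre near 10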
# Starred values were filed as active, the others as inactive; ? = inconclusive.
no.	compound	NOMO-1 viab
1	C[C@H]1CN([C@@H](C)CO)C(=O)c2cccc(NC(=O)c3nc4ccccc4s3)c2O[C@@H]1CN(C)S(C)(=O)=O	9.4
2	C[C@H]1CN([C@@H](C)CO)C(=O)Cc2cc(NC(=O)Nc3ccc(F)cc3)ccc2O[C@H]1CN(C)C(=O)Nc1ccc(F)cc1	-15.8
3	O=C(Cn1cnc2scc(-c3cccc([N+](=O)[O-])c3)c2c1=O)Nc1ccc(Cl)cc1	15.9
4	O=S1(=O)CCC(NS(=O)(=O)c2cccc3cccnc23)C1 (stereo unspecified)	11.4
5	Cc1noc(C)c1NC(=O)Nc1ccc2c(c1)C(=O)N([C@H](C)CO)C[C@H](C)[C@@H](CN(C)S(=O)(=O)c1cccs1)O2	1.5
6	CC(C)NC(=O)N(C)C[C@@H]1Oc2ccc(NC(=O)Cc3ccccc3)cc2C(=O)N([C@H](C)CO)C[C@H]1C	-4.5
7	C[C@H]1CN([C@@H](C)CO)C(=O)c2cccc(NC(=O)NC3CCCCC3)c2O[C@H]1CN(C)C(=O)NC1CCCCC1	39.1
8	CCc1ccc(OCC(=O)NC(=S)Nc2cccc3nsnc23)cc1	36.0
9	C[C@@H]1CN([C@H](C)CO)C(=O)Cc2cc(NC(=O)CCCCCC(=O)Nc3ccccc3N)ccc2O[C@@H]1CN(C)S(=O)(=O)c1ccc(F)cc1	-2.4
10	Cc1noc(C)c1NC(=O)N(C)C[C@@H]1Oc2ccc(NC(=O)NC3CCCCC3)cc2CC(=O)N([C@@H](C)CO)C[C@@H]1C	17.7
11	C[C@@H]1CN([C@@H](C)CO)C(=O)c2cc(NC(=O)Cc3ccccc3)ccc2O[C@@H]1CN(C)C(=O)Nc1ccc2c(c1)OCO2	5.7
12	Cc1cccc(NC(=O)CCn2cnc3ccccc3c2=O)c1C	-18.0
13	C[C@@H]1CN([C@@H](C)CO)C(=O)Cc2cc(NC(=O)Cn3cnnn3)ccc2O[C@@H]1CN(C)S(=O)(=O)c1ccc(Cl)cc1	31.4
14	C[C@@H]1CN([C@H](C)CO)C(=O)Cc2cc(NC(=O)Nc3ccc4c(c3)OCO4)ccc2O[C@H]1CN(C)C	15.8
15	Cc1noc(C)c1NC(=O)N(C)C[C@@H]1Oc2ccc(NC(=O)Cc3cn(C)c4ccccc34)cc2C(=O)N([C@@H](C)CO)C[C@@H]1C	11.6
16	OC(Cc1ccccc1)(c1ccccc1)c1ccccc1NC(=S)NC1CC2C=CC1C2 (stereo unspecified)	28.2
17	COc1ccc(-c2nc3ccccc3s2)cc1NC(=O)COc1ccc(C(C)C)cc1	47.4
18	C[C@@H]1CN([C@H](C)CO)C(=O)c2cc(NC(=O)Nc3ccc4c(c3)OCO4)ccc2O[C@H]1CN(C)S(=O)(=O)c1cccs1	4.9
19	C[C@@H]1CN([C@@H](C)CO)C(=O)c2cccc(NC(=O)Nc3ccc(F)cc3)c2O[C@@H]1CN(C)Cc1ccccc1	8.0
20	Cc1nc(SCCCSc2n[nH]c(C)n2)n[nH]1	23.1
21	Cc1noc(C)c1S(=O)(=O)Nc1ccc2c(c1)CC(=O)N([C@@H](C)CO)C[C@H](C)[C@@H](CN(C)Cc1ccccc1)O2	19.4
22	COc1ccc(S(=O)(=O)N(C)C[C@H]2Oc3ccc(NC(=O)CCN4CCOCC4)cc3CC(=O)N([C@@H](C)CO)C[C@H]2C)cc1	23.7
23	O=C(CCNc1ccc(Oc2ccccc2)cc1)c1ccco1	131.2*
24	COC(=O)CNC(=O)c1cc(-c2ccncc2)nc2ccc(C)cc12	-15.1
25	CCOC(=O)c1oc2ccccc2c1CO	26.5
26	O=C(/C=C/c1ccc(O)cc1)NCC(O)c1ccc(O)cc1 (stereo unspecified)	8.0
27	C[C@H](CO)N1C[C@H](C)[C@H](CN(C)C)Oc2ccc(NC(=O)Cc3cn(C)c4ccccc34)cc2C1=O	-1.3
28	C[C@@H]1CN([C@H](C)CO)C(=O)c2cccc(NS(=O)(=O)c3cccs3)c2O[C@H]1CN(C)C(=O)Nc1cccc2ccccc12	16.3
29	O=C(CCN1C(=O)C2C3C=CC(C4CC34)C2C1=O)Nc1ccc(Br)cc1Cl (stereo unspecified)	9.7
30	CS(=O)(=O)CCSc1ncccc1C(=O)NCc1cccs1	3.6
31	C[C@H](CO)N1C[C@H](C)[C@H](CN(C)Cc2ccc3c(c2)OCO3)Oc2ccc(NC(=O)CCCCCC(=O)Nc3ccccc3N)cc2CC1=O	132.4*
32	COc1ccc(CN(C)C[C@@H]2Oc3c(NC(=O)Nc4ccc(F)cc4)cccc3C(=O)N([C@H](C)CO)C[C@@H]2C)cc1	13.6
33	C[C@H]1CN([C@@H](C)CO)C(=O)c2cccc(NC(=O)c3ccncc3)c2O[C@@H]1CN(C)Cc1ccc(Oc2ccccc2)cc1	72.7
34	COc1ccc(NC(=O)N(C)C[C@H]2Oc3c(NC(=O)c4ccc(-c5nccs5)cc4)cccc3C(=O)N([C@@H](C)CO)C[C@@H]2C)cc1	1.2
35	O=C(Cn1nnc(-c2ccccc2F)n1)NCc1ccco1	18.8
36	Clc1ccc(-c2nc3sccn3c2/C=N/OCc2ccc(Cl)c(Cl)c2)cc1	1.9
37	C[C@H](CO)N1C[C@H](C)[C@@H](CN(C)C(=O)Nc2cccc3ccccc23)Oc2ccc(NC(=O)Cc3cn(C)c4ccccc34)cc2C1=O	7.5
38	O=C(O)CCc1nn2c3ccccc3nc2n(Cc2ccccc2)c1=O	-6.5
39	C[C@@H]1CN([C@@H](C)CO)C(=O)Cc2cc(NC(=O)C3CC3)ccc2O[C@@H]1CN(C)C	-3.7
40	C[C@@H]1CN([C@@H](C)CO)C(=O)c2cccc(NC(=O)C3CC3)c2O[C@H]1CN(C)Cc1ccc(-c2ccccc2)cc1	?
41	C[C@@H]1CN([C@@H](C)CO)C(=O)c2cccc(NS(=O)(=O)c3cn(C)cn3)c2O[C@@H]1CN(C)C(=O)NC1CCCCC1	0.5
42	CC(C)(C)C(=O)Nc1ccc(-c2cc3cc(Cl)ccc3o2)cc1	-26.0
43	COc1ccc(S(=O)(=O)NCc2cccnc2)c(Cl)c1Cl	-7.2
44	CNC[C@@H]1Oc2c(NS(=O)(=O)c3ccccc3)cccc2C(=O)N([C@@H](C)CO)C[C@H]1C	-1.6
45	CCCCCC[C@H](O)/C=C/CC1C(=O)CC[C@H](O)C1=O (stereo partly specified)	1.9
46	Cc1cccc(Cl)c1OC(=O)c1cc(C(C)(C)C)nn1C	67.6
47	Cn1c(SCC(=O)Nc2cccc(Br)c2)nnc1-c1ccccc1Cl	24.1
48	CCn1c(SCC(=O)Nc2ccc(Cl)cc2Cl)nnc1-c1ccccc1	-14.7
49	COc1ccc(OCC(=O)Nc2cccc(Cl)c2N2CCOCC2)cc1	41.4
50	Cc1[nH]c2ccccc2c1/C=C/c1nc2ccccc2c(=O)n1CCCO	4.0
51	C[C@H]1CN([C@@H](C)CO)C(=O)c2cc(NS(=O)(=O)c3cn(C)cn3)ccc2O[C@H]1CN(C)C(=O)Nc1ccc2c(c1)OCO2	17.2
52	C[C@H]1CN([C@@H](C)CO)C(=O)Cc2cc(NS(C)(=O)=O)ccc2O[C@@H]1CN(C)S(=O)(=O)c1cn(C)cn1	-1.4
53	C[C@H]1CN([C@@H](C)CO)C(=O)Cc2cc(NC(=O)Cn3cnnn3)ccc2O[C@@H]1CN(C)Cc1ccc(Oc2ccccc2)cc1	31.8
54	C[C@@H]1CN([C@H](C)CO)C(=O)c2cccc(NC(=O)C3CCCCC3)c2O[C@H]1CN(C)CC1CC1	74.4
55	COC(=O)C1=CO[C@@H](O[C@@H]2O[C@H](CO)[C@@H](O)[C@H](O)[C@H]2O)[C@H]2[C@@H]1C=CC21C=C([C@H](C)O)C(=O)O1 (stereo partly specified)	23.2
56	C[C@@H]1CN([C@@H](C)CO)C(=O)c2cccc(NC(=O)c3cnccn3)c2O[C@@H]1CN(C)S(=O)(=O)c1ccc(Cl)cc1	11.1
57	COc1ccc(S(=O)(=O)Nc2ccc3c(c2)CC(=O)N([C@H](C)CO)C[C@@H](C)[C@@H](CN(C)C(=O)NC(C)C)O3)cc1	10.9
58	CNC[C@H]1OCCCC[C@@H](C)Oc2ccc(N(C)C)cc2C(=O)N([C@H](C)CO)C[C@@H]1C	5.1
59	CCN1CCN(C(=O)CSc2nc(-c3ccc(OC)c(OC)c3)cc(C(F)(F)F)n2)CC1	69.9
60	Cc1ccc(S(=O)(=O)N(C)C[C@@H]2Oc3ccc(NC(=O)Nc4c(C)noc4C)cc3CC(=O)N([C@@H](C)CO)C[C@@H]2C)cc1	11.5

# Arranged by heavy-atom count (descending): 3 of the compounds above.
no.	compound	NOMO-1 viab
50	Cc1[nH]c2ccccc2c1/C=C/c1nc2ccccc2c(=O)n1CCCO	4.0
47	Cn1c(SCC(=O)Nc2cccc(Br)c2)nnc1-c1ccccc1Cl	24.1
4	O=S1(=O)CCC(NS(=O)(=O)c2cccc3cccnc23)C1 (stereo unspecified)	11.4

# Continued.
no.	compound	NOMO-1 viab
61	CC(C)NC(=O)N(C)C[C@H]1Oc2c(NC(=O)Nc3ccc(C(F)(F)F)cc3)cccc2C(=O)N([C@H](C)CO)C[C@@H]1C	21.9
62	CNC(=O)CN(c1cc(C)ccc1OC)S(C)(=O)=O	6.0
63	COc1cc(/C=C/C(=O)O[C@@H]2O[C@H](CO[C@@H]3O[C@H](CO)[C@@H](O)[C@H](O)[C@H]3O)[C@@H](O)[C@H](O)[C@H]2OC(=O)/C=C/c2cc(OC)c(O)c(OC)c2)cc(OC)c1O	14.7
64	COc1c(O)cc2c(-c3ccccc3)cc(=O)oc2c1OC	-1.1
65	C[C@@H]1CN([C@@H](C)CO)C(=O)c2cc(NC(=O)c3ccncc3)ccc2O[C@H]1CN(C)C(=O)Nc1ccc(F)cc1	-1.4
66	Cc1noc(C)c1S(=O)(=O)Nc1ccc2c(c1)C(=O)N([C@H](C)CO)C[C@@H](C)[C@H](CN(C)Cc1ccncc1)O2	10.0
67	C=C1[C@]2(C)C[C@@H]3C(=C)[C@@]4(C=CC(=O)OC4(C)C)CC[C@@]3(C)[C@]13C(=O)O[C@H](C)[C@]3(O)C2=O	24.6
68	C[C@@H]1CN([C@H](C)CO)C(=O)c2cccc(NS(=O)(=O)c3ccc(F)cc3)c2O[C@@H]1CN(C)Cc1ccc(Oc2ccccc2)cc1	30.4
69	C[C@H](CO)N1C[C@H](C)[C@@H](CN(C)S(C)(=O)=O)Oc2ccc(NC(=O)C3CCCCC3)cc2C1=O	6.5
70	CC(C)OC(=O)CSc1nnc(-c2ccccc2)o1	42.8
71	C[C@H]1CN([C@@H](C)CO)C(=O)c2cc(NS(=O)(=O)c3cccs3)ccc2O[C@H]1CN(C)Cc1ccc2c(c1)OCO2	17.7
72	CC(C)NC(=O)N(C)C[C@@H]1Oc2ccc(NS(=O)(=O)c3ccc(F)cc3)cc2C(=O)N([C@H](C)CO)C[C@H]1C	8.3
73	O=C(Nc1ccc(I)cc1C(=O)NCCN1CCOCC1)c1ccccc1Cl	22.5
74	C[C@@H]1CCCCO[C@H](CN(C)C(=O)Nc2ccc(F)cc2)[C@@H](C)CN([C@H](C)CO)C(=O)c2cc(NS(=O)(=O)c3ccc(F)cc3)ccc2O1	26.6
75	C[C@H]1CN([C@@H](C)CO)C(=O)c2cccc(NC(=O)Nc3ccccc3)c2O[C@@H]1CN(C)CC1CC1	-0.8
76	C[C@@H]1CN([C@H](C)CO)C(=O)c2cc(NC(=O)Nc3ccccc3)ccc2O[C@@H]1CN(C)S(=O)(=O)c1ccc(F)cc1	19.0
77	CS(=O)(=O)N(CC(=O)Nc1cccc([N+](=O)[O-])c1)c1cc(Cl)c(Cl)cc1Cl	16.3
78	CS(=O)(=O)N(CC(=O)NC1CC1)c1ccc(Cl)c(C(F)(F)F)c1	7.0
79	Cc1ccc(-n2c(SCC(=O)Nc3ccccc3F)nnc2-c2ccccc2)cc1C	15.2
80	COc1ccc(NC(=O)Nc2ccc3c(c2)C(=O)N([C@H](C)CO)C[C@H](C)[C@H](CN(C)C(=O)NC2CCCCC2)OCCCC[C@@H](C)O3)cc1	-5.8
81	Cc1cc(C)c(OCC(=O)Nc2ccc3oc(-c4cncc(Br)c4)nc3c2)c(Cl)c1	-12.4
82	C[C@H]1CN([C@@H](C)CO)C(=O)c2cccc(NC(=O)c3nc4ccccc4s3)c2O[C@@H]1CN(C)C(=O)Nc1ccccc1	18.1
83	CC(C)c1ccc(S(=O)(=O)Nc2ccc(O)c(Sc3ncn[nH]3)c2)cc1	22.6
84	Cc1noc(C)c1NC(=O)Nc1ccc2c(c1)C(=O)N([C@H](C)CO)C[C@@H](C)[C@H](CN(C)Cc1ccc(Oc3ccccc3)cc1)O2	15.3
85	COc1ccc(C)cc1S(=O)(=O)N(C)CC(=O)N1CCN(c2ccccc2)CC1	24.8
86	O=C(CCc1nc(-c2ccccc2)no1)Nc1ccc([N+](=O)[O-])cc1	17.3
87	COCCNC(=O)c1c(NC(=O)c2ccccc2C)sc2c1CCCC2	13.4
88	Cc1cc(=O)oc2cc(OC(C)C(=O)Nc3ccc(N4CCOCC4)cc3)ccc12 (stereo unspecified)	18.9
89	Cn1c(SCC(=O)Nc2ccc(Br)c(Cl)c2)nnc1-c1ccccc1F	34.7
90	C[C@@H]1CN([C@H](C)CO)C(=O)c2cccc(NC(=O)c3cnccn3)c2O[C@@H]1CN(C)C(=O)Nc1ccccc1	9.8
91	CCS(=O)(=O)CCSc1nc(C)c(C(=O)Nc2ccccc2)c(-c2ccccc2)c1C#N	4.0
92	COc1ccc(OC)c(NC(=O)c2cnn(-c3ccccc3Cl)c2NC(=O)c2ccco2)c1	21.2

# Reformatted with each value named: part of the list above
83: CC(C)c1ccc(S(=O)(=O)Nc2ccc(O)c(Sc3ncn[nH]3)c2)cc1
  NOMO-1 viab = 22.6

6: CC(C)NC(=O)N(C)C[C@@H]1Oc2ccc(NC(=O)Cc3ccccc3)cc2C(=O)N([C@H](C)CO)C[C@H]1C
  NOMO-1 viab = -4.5

60: Cc1ccc(S(=O)(=O)N(C)C[C@@H]2Oc3ccc(NC(=O)Nc4c(C)noc4C)cc3CC(=O)N([C@@H](C)CO)C[C@@H]2C)cc1
  NOMO-1 viab = 11.5

# Compound activity as filed in PubChem BioAssay.

# A portion of the library; rates above refer to the full screens.
